Six1-Eya2 blk = qHTS Assay for Inhibitors of the Six1/Eya2 Interaction | Homeobox protein SIX1 (Homo sapiens) + Protein phosphatase EYA2 (Homo sapiens), … | AlphaScreen GST-Six1/His-Eya2 binding, biochemical; hits give low values; control for the full effect not named in the record | activity change, % (test concentration not listed) | 0.56% of 360,000 active; in the data active = activity change below about -65%; inconclusive = about -30% to -65%; inactive = above about -30%; also: % is scaled to controls: 0 for no effect and ±100 for the full control effect; compound concentration not given in the record
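GST-Six1 + His-Eya2 (5X stock: 250/500 nM); Tris pH 8.0, 300 mM NaCl, 0.05% BSA, 0.02% Tween 20; GSH donor/Ni acceptor beads; 1 h 37 °C dark; AlphaScreen readout.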
D2 PAM = Beta-Arrestin HTS for Positive Allosteric Modulators of the Human D2 Dopamine Receptor: Potentiators; 0.23% of 360,000 active; D(2) dopamine receptor (Homo sapiens), P14416; potentiation, % (no concentration beside the values); DiscoveRx D2 beta-arrestin cells, luminescence, 90 min; 100% = 57 uM dopamine signal; active = potentiation of 50% or more; inconclusive = 30% to 50%; inactive = 30% or less;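 also: compound concentration not given in the record; tested on top of an EC20 dose of dopamine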
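PathHunter beta-arrestin assay in DiscoveRx D2 cells. Compounds were added with an EC20 of dopamine (50 nM final) for 90 min at 37 deg C. Luminescence was read 1 h after detection reagent, with 57 uM dopamine as the EC100 control.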
D2 agonist = Beta-Arrestin HTS for Positive Allosteric Modulators of the Human D2 Dopamine Receptor: Agonists; D(2) dopamine receptor (Homo sapiens), P14416; DiscoveRx PathHunter D2 beta-arrestin, luminescence, 90 min; 100% = 57 uM dopamine signal; activation, % (concentration not given with the values); 0.084% of 360,000 active; in the data active = activation above about 40%; inconclusive = about 15% to 40%; inactive = below about 15%; also: compound concentration not given in the record; the text of the record calls up to 30% inactive
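DiscoveRx PathHunter D2 beta-arrestin cells (2,100/well) attached overnight, then compound-stimulated 90 min at 37 C in HBSS/10 mM HEPES/0.1% Tween-20 buffer; beta-galactosidase complementation read by luminescence after 1 h at ambient temperature. Dopamine 57 uM final (EC100) as control.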
TRPV1 PAM = HTS Assay for Compounds that Act as Potentiators of the Vanilloid Receptor 1; potentiation, % at 8.33 µM; 0.02% of 320,000 active; TRPV1-expressing cells, Fluo-8 calcium influx, capsaicin EC20 potentiation; host cell line not named in the record; control for the full effect not named in the record; AID 540277, 2011; Transient receptor potential cation channel subfamily V member 1 (Homo sapiens), Q8NER1; active means potentiation above 80%; inconclusive means 30% to 80%; inactive means below 30%; also: 0% is about no effect
Target sequence (Q8NER1 whole entry, looked up): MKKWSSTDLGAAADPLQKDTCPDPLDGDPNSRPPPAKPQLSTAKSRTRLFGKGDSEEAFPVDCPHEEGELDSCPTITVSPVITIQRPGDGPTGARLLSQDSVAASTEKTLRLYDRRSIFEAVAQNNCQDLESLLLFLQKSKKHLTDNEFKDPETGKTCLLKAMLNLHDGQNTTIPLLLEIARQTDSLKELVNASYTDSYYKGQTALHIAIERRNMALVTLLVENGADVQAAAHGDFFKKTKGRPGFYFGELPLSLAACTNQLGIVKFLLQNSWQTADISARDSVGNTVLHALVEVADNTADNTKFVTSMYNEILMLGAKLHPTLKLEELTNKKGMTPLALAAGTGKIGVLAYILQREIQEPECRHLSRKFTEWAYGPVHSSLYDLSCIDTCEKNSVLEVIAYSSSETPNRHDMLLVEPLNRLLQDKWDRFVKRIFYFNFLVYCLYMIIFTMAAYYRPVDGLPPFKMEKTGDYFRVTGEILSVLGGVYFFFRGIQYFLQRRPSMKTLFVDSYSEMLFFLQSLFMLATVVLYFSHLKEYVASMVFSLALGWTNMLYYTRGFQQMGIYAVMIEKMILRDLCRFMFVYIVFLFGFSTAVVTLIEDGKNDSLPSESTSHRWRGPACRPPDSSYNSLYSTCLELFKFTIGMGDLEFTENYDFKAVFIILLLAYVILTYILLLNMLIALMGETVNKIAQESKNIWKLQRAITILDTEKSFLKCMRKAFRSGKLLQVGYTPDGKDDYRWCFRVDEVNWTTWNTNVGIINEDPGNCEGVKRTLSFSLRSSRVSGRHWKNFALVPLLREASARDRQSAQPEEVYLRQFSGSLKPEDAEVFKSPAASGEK
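Fluo-8 calcium influx in TRPV1-expressing cells, kinetic read (ex 480/em 520 nm). Compound added and read 3 min for agonist activity, followed by capsaicin at EC20 final and 2 min further read for enhancement.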
CtBP-E1A inh = qHTS Assay for Inhibitors of the CtBP/E1A Interaction; CtBP / adenovirus E1A interaction (AlphaScreen); AlphaScreen GST-E1A/His-CtBP binding, 1536-well; hits give low values; control for the full effect not named in the record; activity change, % (no concentration beside the values); 0.49% of 340,000 active; AID 651724, 2012; in the data active means activity change below about -65%; inconclusive means about -30% to -65%; inactive means above about -30%; also: % is scaled to controls: 0 for no effect and ±100 for the full control effect; compound concentration not given in the record
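In 5 uL wells, 23 nL compound meets equimolar GST-E1A and His-CtBP (5X stock 125 nM each) for 2 h, 37 °C. Beads (5X, 50 ug/mL) then 1 h, 37 °C, dark.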
PINK1 modulator = A Quantitative High throughput Screen to Identify Chemical Modulators of PINK1 Expression | PINK1 immunofluorescence, high-content cytometry, 24 h | Potency, µM (highest dose often 76.6 µM), inactives show top-dose activation (PINK1 increase), actives largely listed as activators | 0.2% of 410,000 active; active = well fitted activation curve with a large enough effect; inconclusive = small, poorly fitted or top-dose-only effect; inactive = flat fitted curve, though single readings scatter; cell line not stated here;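 also: potency is read from the fitted curve at half-maximal effect; % of control where 0% means no effect; nearly all actives have a fitted effect of over 65% in size; a mitochondrial uncoupler was the plate control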
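Stable cell line treated 24 h with compounds at 5 concentrations (CCCP controls), then fixed and immunostained for PINK1 plus nuclear and cell stains; PINK1 immunofluorescence quantified by laser-scanning microplate cytometry.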
Sfp PPTase inh = qHTS Assay for Inhibitors of Bacillus subtilis Sfp phosphopantetheinyl transferase (PPTase); Biochemical Sfp PPTase activity, qHTS; Potency, µM, for the others: max response, negative = inhibition, usual class: inhibitors; 3.5% of 310,000 active; AID 1490, 2009; active = well fitted inhibition curve with a large enough effect; inconclusive = small, poorly fitted or top-dose-only effect, or another doubt; inactive = no such curve, though single readings can be large or run the other way;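 also: the enzyme is Sfp with the accession as filed and its product quenches rhodamine fluorescence; potency is read from the fitted curve at half-maximal effect; 0% = enzyme reaction without inhibitor and -100% = no enzyme wells; top concentration of the series not given in the record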
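Fluorescence-quenching assay with 15 nM Sfp, 5 uM rhodamine-CoA and 12.5 uM BHQ-2-labelled ybbR peptide in pH 7.6 Hepes/MgCl2 buffer. Enzyme was pre-incubated with compound for 15 min at room temperature. Rate was taken from the 30-min fluorescence change (525/598 nm).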
The depositor's hits bear a star; ? = inconclusive; / = not tested or not shown; ! = not confirmed by another sample; [ ] = remark or other dose. Outcome played no part in choosing rows, and some 3.7% of all compounds hit somewhere here.

Sample of the layout:
item	SMILES	D2 agonist	D2 PAM	Six1-Eya2 blk	TRPV1 PAM
1	O=C(CN(Cc1ccc(F)cc1)C(=O)CCC(=O)Nc1ccccn1)NCc1ccco1	2.3	-1	-3	3
2	CC(=O)Nc1ccc(S(=O)(=O)NCC(=O)N2CCN(S(=O)(=O)c3cccs3)CC2)cc1	0.1	-3	6	11
3	COc1ccccc1NC(=O)C(=O)NCC(c1ccco1)N1CCc2ccccc2C1 (centres undefined)	-3.5	-6	-5	1

item	PINK1 modulator	CtBP-E1A inh	Sfp PPTase inh
1	-1.6%	-1	-20%
2	1.0%	-11	/
3	1.7%	-23	/

Results, from the first entry:
item	SMILES	D2 agonist	D2 PAM	Six1-Eya2 blk	TRPV1 PAM
1	O=C(CN(Cc1ccc(F)cc1)C(=O)CCC(=O)Nc1ccccn1)NCc1ccco1	2.3	-1	-3	3
2	CC(=O)Nc1ccc(S(=O)(=O)NCC(=O)N2CCN(S(=O)(=O)c3cccs3)CC2)cc1	0.1	-3	6	11
3	COc1ccccc1NC(=O)C(=O)NCC(c1ccco1)N1CCc2ccccc2C1 (centres undefined)	-3.5	-6	-5	1
4	Cc1ccc2sc(N(CCCN(C)C)C(=O)c3ccc(Br)s3)nc2c1C	4.2	-13	-20	7
5	O=[N+]([O-])c1cccc(S(=O)(=O)Nc2ccc(S(=O)(=O)Nc3nccs3)cc2)c1	-2.9	1	1	/
6	CC(=O)NC(CCS(C)(=O)=O)C(=O)Nc1ccc(Cl)c(Cl)c1 (centres undefined)	1.1	-6	0	5
7	CC(C)Oc1ccc(C(=O)Nc2ccc(N3CCCCC3)cc2)cc1	2.5	-15	-2	-17
8	COC(=O)c1ccc(-c2nc(O)c3cnccn23)cc1	2.1	-17	-22	13
9	CCCS(=O)(=O)C/C(N)=N/OC(=O)c1ccc(Cl)cc1	9.4	25	5	-10
10	O=[N+]([O-])c1ccc(O)c(/C=N/Nc2ccc(Cl)nn2)c1	-13	-43	-82*	16
11	CCCCN1C(=O)/C(=C/C=C2/CC(C)(C)CN2C)SC1=S	-0.9	-9	-18	-2
12	COc1ccc(C(=O)C2CCCN(Cc3ccc(C#CCCO)cc3)C2)c(OC)c1 (centres undefined)	-4.4	-13	2	2

item	PINK1 modulator	CtBP-E1A inh	Sfp PPTase inh
1	-1.6%	-1	-20%
2	1.0%	-11	/
3	1.7%	-23	/
4	-3.5%	-25	-28%
5	-0.2%	14	/
6	0.2%	-12	14%
7	2.9%	1	10%
8	0.0%	-3	-1%
9	1.0%	12	16%
10	-0.7%	-91*	-9%
11	13%	9	-8%
12	0.4%	/	2%

Further compounds.
item	SMILES	D2 agonist	D2 PAM	Six1-Eya2 blk	TRPV1 PAM
13	CC(NC(=O)c1noc2c1CCCC2)c1ccccc1 (centres undefined)	0.4	-1	-12	2
14	COc1ccc(NC(=O)CN(CC(=O)Nc2ccc(OC)cc2)C(C)(C)CO)cc1	3.0	0	5	?
15	CNC(=O)c1c(NC(=O)c2cc(-c3cc(C)c(C)cc3O)n[nH]2)sc2c1CCCC2	4.6	2	0	20
16	CC(C)C(=O)Nc1cccc(NC(=O)c2cc3ccccc3o2)c1	-4.6	-38	-3	0
17	CC(=O)Nc1ccccc1OCC(=O)c1ccc2c(c1)OCO2	0.3	2	2	13
18	COc1ccc(C2CC2C(C)=O)cc1 (centres undefined)	-2.0	-3	1	17
19	CC(O)CNc1nc2ccccc2n1CC(=O)NCC(F)(F)F (centres undefined)	-2.6	-4	9	-9
20	Cc1cc(C)c2c(NC(=S)Nc3ccccc3)n[nH]c2n1	-3.0	-4	-10	1
21	COc1c(C=O)c2c(c(OC)c1OC)-c1ccc(OC)c(=O)cc1C(NC(C)=O)CC2 (centres undefined)	-0.4	-11	9	/
22	NC(=O)CC(NC(=O)c1ccccc1)c1ccc(NCC2CC2)c([N+](=O)[O-])c1 (centres undefined)	-6.1	-9	2	16
23	CC1(C(=O)NS(=O)(=O)c2ccc(Br)cc2)CCN1C(=O)C1CCCCC1 (centres undefined)	-2.8	-2	-5	/
24	CC(NS(=O)(=O)c1cc2c3c(c1)CCN3C(=O)CC2)c1ccccc1 (centres undefined)	-0.1	0	3	/

item	PINK1 modulator	CtBP-E1A inh	Sfp PPTase inh
13	4.1%	-24	10%
14	-2.4%	4	12%
15	5.8%	0	13%
16	-1.1%	-2	11%
17	5.0%[38.3 µM]	5	0%
18	0.8%	12	-1%
19	0.1%	15	19%
20	0.1%	2	-18%
21	6.3%	-3	/
22	16%	0	10%
23	-0.1%	0	/
24	0.9%	3	/

(continued)
item	SMILES	D2 agonist	D2 PAM	Six1-Eya2 blk	TRPV1 PAM
25	COc1cccc(NC(=O)CC2COc3ccccc3O2)c1 (centres undefined)	-0.4	-16	6	0
26	COc1ccc(Cl)cc1NC(=O)CN(C)C(=O)c1ccc(N2CCCCCC2)c([N+](=O)[O-])c1	-6.0	-36	-25	3
27	C=CCN1CCc2nc(N)sc2CC1	69*	81*	-1	7
28	Cn1c(C(=O)NCCc2ccsc2)cc2c(=O)n(C)c3ccccc3c21	12	8	-2	0
29	Cc1cc(Cl)ccc1C(=O)C1CCCN(C(=O)c2ccc3c(c2)OCO3)C1 (centres undefined)	-0.2	-13	-2	/
30	S=c1[nH]nc(-c2ccc(Cl)cc2Cl)n1-c1ccc2c(c1)OCCO2	3.2	-16	-6	10
31	COCC(=O)N1CCC(Oc2ccc(C(=O)NCCc3ccncc3)cc2)CC1	-2.1	-5	0	6
32	CCOc1cc(C)c(S(=O)(=O)NCc2ccccn2)cc1C	6.4	3	-1	15
33	CCn1c(=O)c2c(nc(SCC(=O)NC3CCCC3)n2C)n(C)c1=O	-3.9	5	9	14
34	Cc1cccc(C(=O)NC2CCCCCCC2)c1	-6.1	-18	1	-20
35	O=S(=O)(c1ccc(F)cc1)N1CCN(c2ccccn2)CC1	4.6	2	-4	-11
36	COC(=O)c1ccc(Cn2ccc(=O)[nH]c2=O)cc1	-0.4	-12	7	/

item	PINK1 modulator	CtBP-E1A inh	Sfp PPTase inh
25	1.9%	1	20%
26	1.8%	-23	/
27	1.9%	-12	56µM*!
28	17%	-5	12%
29	0.4%	-4	/
30	-2.0%	-1	45µM*
31	0.6%	-3	14%
32	1.6%	10	11%
33	-0.2%	0	9%
34	-0.7%	-3	9%
35	0.1%	3	15%
36	-1.8%	7	/

Four compounds picked at random from those above:
item	SMILES	D2 agonist	D2 PAM	Six1-Eya2 blk	TRPV1 PAM
25	COc1cccc(NC(=O)CC2COc3ccccc3O2)c1 (centres undefined)	-0.4	-16	6	0
28	Cn1c(C(=O)NCCc2ccsc2)cc2c(=O)n(C)c3ccccc3c21	12	8	-2	0
33	CCn1c(=O)c2c(nc(SCC(=O)NC3CCCC3)n2C)n(C)c1=O	-3.9	5	9	14
32	CCOc1cc(C)c(S(=O)(=O)NCc2ccccn2)cc1C	6.4	3	-1	15

item	PINK1 modulator	CtBP-E1A inh	Sfp PPTase inh
25	1.9%	1	20%
28	17%	-5	12%
33	-0.2%	0	9%
32	1.6%	10	11%

Remaining list, next part.
item	SMILES	D2 agonist	D2 PAM	Six1-Eya2 blk	TRPV1 PAM
37	O=C1C2CCCCN2C(=O)N1CCCCN1CCN(c2ccc([N+](=O)[O-])cc2)CC1 (centres undefined)	-2.2	-22	1	21
38	Cc1ccc(CNC(=O)c2ccc(S(=O)(=O)N3CCCCCC3)cc2)cc1	-2.7	-2	4	/
39	COCCN(CCOC)S(=O)(=O)c1ccc(C(=O)Nc2ccncc2)cc1	3.3	-10	1	5
40	Cc1ccc(-c2csc3ncn(C(C)C(=O)O)c(=O)c23)cc1 (centres undefined)	-5.4	-5	3	-5
41	NC1=NC[C@@H](CC2CCCCC2)N1CCc1cc(C(F)(F)F)cc(C(F)(F)F)c1	-4.7	/	0	/
42	CCCCc1nc(NCCN)c(C#N)c2c1CSC(C)(C)C2	-0.3	-19	1	-15
43	C/C(=N\NC(=S)Nc1ccccc1)C1Cc2ccccc2C(=O)O1 (centres undefined)	1.5	-2	3	?
44	O=C(COC(=O)c1ccc(Br)o1)Nc1ccc(Br)cc1	9.2	-2	5	0
45	CCCCNC(=O)C(=O)NCC1CCCN1S(=O)(=O)c1cccs1 (centres undefined)	-5.7	6	8	1
46	Cn1nc(C(=O)Oc2cc(=O)n(C)c3ccccc23)c2ccccc2c1=O	1.8	-10	5	3
47	CCC1CCc2c(sc(N)c2C(N)=O)C1 (centres undefined)	-5.1	-12	-10	/
48	COc1ccc(OCCSc2nc3ccccc3n2CC(=O)O)cc1	-5.0	-9	-8	5

item	PINK1 modulator	CtBP-E1A inh	Sfp PPTase inh
37	-0.6%	1	15%
38	6.9%	7	/
39	5.3%	3	4%
40	-0.2%	7	16%
41	-1.2%	1	/
42	-4.1%	-1	6%
43	-0.5%	8	22µM*
44	5.0%	10	/
45	-0.7%	5	/
46	-0.4%	/	4%
47	-1.4%	0	/
48	9.0%[38.3 µM]	-2	17%

Additional results follow.
item	SMILES	D2 agonist	D2 PAM	Six1-Eya2 blk	TRPV1 PAM
49	Cn1ncc2c(N3CCN(c4ccccc4F)CC3)ncnc21	1.5	8	-2	-2
50	Nc1c(C(=O)CSc2nccn2-c2cccc(F)c2)c(=O)[nH]c(=O)n1C1CC1	-2.5	-2	0	0
51	CC(C)c1ccc(NC(=O)c2cccnc2)cc1	-2.2	-23	3	-13
52	CCOc1ccc(-c2cc(N3C(=O)Nc4ccccc4N3O)n[nH]2)cc1	-1.0	-2	-1	7
53	CCOC(=O)c1ccc(NC(=S)N(CCCN(CC)CC)Cc2ccco2)cc1	-1.1	-11	-18	5
54	O=C(NNS(=O)(=O)c1ccccc1F)c1cccc(S(=O)(=O)N2CCOCC2)c1	-2.0	-1	12	5

item	PINK1 modulator	CtBP-E1A inh	Sfp PPTase inh
49	1.2%	-6	15%
50	-0.2%	/	/
51	-0.3%[38.3 µM]	13	2%
52	0.4%	0	13%
53	-0.3%	-3	10%
54	-0.8%	3	-4%
